SARS PLpro yeast – SARS-CoV PLP inhibition in yeast; Potency, µM (series often up to 32.9 µM), for the others: at the highest dose activity, positive = growth rescue; 0.19% of 330,000 active; S. cerevisiae expressing SARS-CoV PLpro, growth rescue; control for the full effect not named in the record; active means well fitted rising curve with a large enough effect; inconclusive means small, poorly fitted or top-dose-only effect; inactive means no such curve, though single readings can be large or run the other way; also: 0% is about no effect; nearly all actives have a fitted effect of over 55% in size; growth read by luminescence after 48 h
2A StopGo – lowers the luciferase signal of an FMDV 2A StopGo reporter. human cells with a luciferase reporter of 2A StopGo recoding; control for the full effect not named in the record. 1.2% of 410,000 active. Potency, µM (highest dose often 57.9 µM), without a hit: at the top dose signal change, negative = less light; active = well fitted falling curve with a large enough effect; inconclusive = small, poorly fitted or top-dose-only effect; inactive = no such curve, though single readings can be large or run the other way; tested in HEK293T cells; also: % is scaled to controls: 0 for no effect and ±100 for the full control effect; nearly all actives have a fitted effect of over 45% in size; luciferase light after 4 h
RE007 growth inh – less growth of the S. pombe RE007 Vpr strain. AID 651644. S. pombe RE007 Vpr strain, BacTiter-Glo ATP luminescence, 24 h; control for the full effect not named in the record. 0.21% of 360,000 active. Potency, µM (series often up to 92.2 µM), without a hit: top-dose activity change, negative = less growth; active = well fitted falling curve with a large enough effect; inconclusive = small, poorly fitted or top-dose-only effect; inactive = no such curve, though single readings can be large or run the other way;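 also: % is scaled to controls: 0 for no effect and ±100 for the full control effect; nearly all actives have a fitted effect of over 50% in size; the assay follows cell death caused by Vpr and the record does not say whether a fall means rescue or toxicity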
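Fission yeast RE007 carrying one integrated HIV-1 vpr copy, seeded at OD 0.01 in PMG+AL medium with 23 nL pinned compound. Grown 24 h at 30 degrees; viability read by BacTiter-Glo luminescence after 5 min.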
Numbers without * were called inactive; ? = inconclusive; [ ] = remark or other dose. Potency is read from the fitted curve at half-maximal effect.

molecule | 2A StopGo | SARS PLpro yeast | RE007 growth inh
COC(=O)C1=C(c2ccc3ccccc3c2)C[C@@H]2CC[C@H]1N2C(=O)NCc1ccc(C(F)(F)F)cc1 | ? | 4% | 11%
Cc1ccc(C[n+]2ccccc2)cc1 | -21% | 9% | -6%
N#Cc1nnn(Cc2ccccc2)c1N | -3% | 1% | 10%
Cc1[nH]n(-c2ccccc2)c(=O)c1C=NC1CCCCC1 | 37%[activator] | -4% | -10%
C=CC[C@H](CC(=O)N(CCO)Cc1ccccc1)C(=O)NCCOC(=O)[C@@H](CC=C)CC(=O)OC(C)(C)C | -3% | 5% | 9%
C=CC[C@@H](CC(=O)NCCO)C(=O)N[C@H](C)COC(=O)[C@@H](CC=C)CC(=O)OC(C)(C)C | -23% | -1% | -8%
COc1cc(OC)cc(-c2sc3ccc(OC)cc3c2C#CCO)c1 | -10% | -1% | 15%
Cc1cccn2c(=O)c3cc(C(N)=S)c(=N)n(CCCN4CCOCC4)c3nc12 | ? | 0% | -26%
C=CC(COCc1ccccc1)N(CC(=O)OC)S(=O)(=O)c1cc(Br)ccc1OC (stereo not drawn) | -16% | 1% | 2%
CC[C@@]1(C(=O)OC)N[C@H](CN(C)C(=O)COc2ccccc2)[C@@H]2C(=O)N(C)C(=O)[C@@H]21 | 1% | -7% | 2%
COC(=O)C1=C(c2ccc3ccccc3c2)C[C@@H]2CC[C@H]1N2C(=O)NC1CC1 | -15% | -8% | -8%
COc1ccc(C(=O)NNC(=O)C(NC(=O)c2cc(OC)cc(OC)c2)C(C)C)cc1 (stereo not drawn) | 14% | 1% | 0%
CCOC(=O)c1c2ccccc2[n+]([O-])n1[C@@H](C)C(N)=O | 8% | -1% | 0%
O=C(Cn1nnc(-c2ccc(Cl)cc2)n1)N1CCN(C(=O)c2ccco2)CC1 | -7% | -1% | 9%
Cc1ccc(S(=O)(=O)NCCC(=O)NCC(c2ccc(F)cc2)N2CCOCC2)cc1 (stereo not drawn) | -17% | 4% | 0%
Cc1cccc(-n2c(SCC(=O)c3c(N)n(C4CC4)c(=O)[nH]c3=O)nnc2N2CCOCC2)c1 | -5% | -3% | 4%
CN(Cc1ccc(Cl)cc1Cl)C(=O)CCNC(=O)c1ccco1 | -7% | 10% | -3%
COc1cc(OC)cc(-c2c(-c3cccs3)c3cc(-c4cnc(N)nc4)ccc3n2C)c1 | -13% | -7% | -3%
O=C(Nc1ccc2c(c1)S(=O)(=O)N=C1CCCCCN12)c1ccccc1Cl | 27% | 1% | 8%
COc1cc(/C=C/C(=O)c2ccc3c(c2)OCO3)cc(OC)c1OC | 22µM* | -1% | -20%
COc1ccc2nc(SCC(=O)NC(C)c3ccccc3)[nH]c2c1 (stereo not drawn) | 8% | -5% | 4%
COc1ccc(C2NC(c3ccc(OC)cc3OC)C(C)C(=O)C2C)c(OC)c1 (stereo not drawn) | -5% | 1% | 14%
Cc1ccc2c(c1)NC(=O)c1cc([N+](=O)[O-])ccc1O2 | 15% | 0% | -7%
COc1cc2c(-c3ccc4cc[nH]c4c3)c(-c3ccc(C#N)cc3)oc(=O)c2cc1OC | -5% | -1% | -6%
CC(C)CC1C(C#N)=C(N)OC2=C1C(=O)CC(c1ccccc1)C2 (stereo not drawn) | -22% | 2% | -26%
CC1CC(C)CN(C(=O)COC(=O)COc2ccccc2C#N)C1 (stereo not drawn) | -2% | -3% | 7%
COc1ccc(C2CC(=O)N(CCCN(C)CCc3ccc(OC)c(OC)c3)C2)cc1 (stereo not drawn) | -3% | 0% | 33%
C=CCNC(=O)c1cccc2c1C(=O)c1ccc(N3CCOCC3)cc1S2(=O)=O | -15% | 1% | 3%
Cc1ccccc1NC(=S)N1CCC(NC(=O)c2ccco2)CC1 | 2% | -3% | -8%
Cc1ccc(/C=N/NC(=O)c2cccc(S(=O)(=O)Nc3cccc(Cl)c3)c2)o1 | 39%[activator] | -1% | 10%
CCOc1ccc(C(=O)CC(C(=O)O)N2CCN(Cc3ccccc3)CC2)cc1 (stereo not drawn) | -9% | 3% | -5%
CCCCNc1c(-c2cccc(-c3cc(C(C)=O)cs3)c2)nc2cc(C)ccn12 | -28% | 5% | -13%
Cc1cc(C(=O)OCC(=O)N(C)c2ccccc2)c2ccccc2n1 | -25% | 3% | -17%
CC1CCCC(NC(=O)COC(=O)c2ccc(Br)o2)C1C (stereo not drawn) | -9% | -3% | 9%
CCS(=O)c1ccccc1C(=O)OCC(=O)Nc1ccc2ccccc2c1 (stereo not drawn) | ? | 0% | -9%
Cc1ccc(Nc2c(-c3ccccn3)nc3ccc(C)cn23)cc1 | ? | -9% | ?
O=C(NCC1CCCO1)/C(=C/c1ccccc1)NC(=O)c1ccccc1 (stereo not drawn) | -1% | 2% | 12%
O=C(CN1C(=O)NC2(CCc3ccccc32)C1=O)Nc1ccc(Br)cc1F (stereo not drawn) | -16% | -1% | 15%
Cc1onc(-c2ccccc2)c1C(=O)OCC(=O)NC(C)c1ccc(Cl)cc1 (stereo not drawn) | -24% | -12% | 13%
CCC(CO)Oc1cc(NC(=O)Cc2ccccc2F)c2ncn(C(C)C)c2c1 (stereo not drawn) | 12% | 3% | 26%
CC(=O)N/C(=C/C(C)C)c1ccccc1 | 4% | -4% | 8%
COC(=O)c1ccc(-n2cnc3ccccc32)nc1 | 63%[activator] | 1% | -17%
C#Cc1ccc(C(=O)NCc2ccc(N3CCCC3=O)cc2)cc1 | 17% | 0% | -17%
CCOC(=O)C1CCCN(c2oc(-c3ccc(F)cc3)nc2C#N)C1 (stereo not drawn) | 9% | -2% | 11%
O=C(NCCCN1CCOCC1)c1cccnc1SCc1ccccc1Cl | 14% | 0% | -25%
O=C(CSc1nnc(Nc2ccccc2F)s1)NC1CCCC1 | 37%[activator] | 4% | -3%
CCN(C[C@H]1N[C@@](C)(C(=O)OC)[C@H]2C(=O)N(C)C(=O)[C@@H]12)S(=O)(=O)c1ccc(OC(F)(F)F)cc1 | -24% | 0% | 0%
O=C(c1cccc(F)c1)N1CCC(c2nc3ccccc3s2)CC1 | -21% | -5% | -11%
O=C(CNC(=O)c1nc[nH]c1C(=O)N1CCNCC1)OCc1ccccc1 | -16% | -4% | -27%
COc1ccc(CC(=O)N2CCN(S(=O)(=O)c3cc(Cl)ccc3Cl)CC2)cc1 | -7% | 1%[6.58 µM] | -6%
CC[C@]1(C(=O)OC)[C@H]2C(=O)N(Cc3ccccc3)C(=O)[C@H]2[C@H]2CN=C(SCc3ccc(C(=O)OC)cc3)N21 | ? | 5% | -9%
C(=N\Nc1nc(N2CCCCCC2)nc(N2CCCCCC2)n1)/c1ccccc1 | -13% | -4% | -14%
O=C(CN1C(=O)C2CCCCC2C1=O)OCC(=O)c1ccc(F)cc1 (stereo not drawn) | -15% | 2% | 19%
CC1CCCCN1C(=O)CN1CCN(S(=O)(=O)c2ccc(Br)cc2Cl)CC1 (stereo not drawn) | ? | 1% | -1%
O=[N+]([O-])c1cccc(-c2cn(-c3ccccc3)c(=S)[nH]2)c1 | 36%[activator] | -1% | -5%
CCCCN(C(=O)CSc1nnnn1C)C1CCS(=O)(=O)C1 (stereo not drawn) | -25% | 12% | 1%
O=S(=O)(Nc1nc2ccccc2nc1Cl)c1ccc(Br)cc1 | -26% | -5% | -8%
COc1ccc(CC(NC(C)=O)C(=O)NC2CCN(c3ncccc3[N+](=O)[O-])CC2)cc1 (stereo not drawn) | 0% | -2% | -6%
COCc1ccc(-c2c(-c3cccc(OC)c3)sc3ccc(OC)cc23)cc1 | -22% | -7% | 1%
O=C(C[n+]1ccccc1)Nc1ccccc1C(=O)O | 13% | 0% | 11%

2 of these compounds in another layout.
Every second line gives: 2A StopGo | SARS PLpro yeast | RE007 growth inh
> COc1ccc(CC(NC(C)=O)C(=O)NC2CCN(c3ncccc3[N+](=O)[O-])CC2)cc1 (stereo not drawn)
    0% | -2% | -6%
> COCc1ccc(-c2c(-c3cccc(OC)c3)sc3ccc(OC)cc23)cc1
    -22% | -7% | 1%

Further entries follow.
molecule | 2A StopGo | SARS PLpro yeast | RE007 growth inh
O=C(C[C@H]1C/C=C\CC[C@H](Cc2ccc(F)cc2)C(=O)OC[C@@H](Cc2c[nH]c3ccccc23)NC1=O)NCCO | -14% | 2% | -3%
O=C(NCC1CC1)c1onc(CSc2ccc(F)cc2)c1C(=O)NCC1CC1 | -11% | -1% | -15%
O=C(c1ccc(Cn2c(=O)[nH]c3ccsc3c2=O)cc1)N1CCN(c2ccccc2)CC1 | 9% | -1% | 16%
CC(CC(=O)Nc1ccccc1)n1ccnc1 (stereo not drawn) | 5% | 0% | -2%
O=C(CC1CCCC1)Nc1cc(C(F)(F)F)ccc1-n1cncn1 | -13% | 0% | 2%
S=C(NCCCN1CCOCC1)Nc1ccc(N2CCOCC2)cc1 | 5% | -3% | -10%
COc1ccc(-c2sc3ccc(OC)cc3c2C#Cc2cncn2C)cc1 | 32%[activator] | -9% | -3%
CCCCNC(=O)c1cccc(S(=O)(=O)N2CC3(C)CC2CC(C)(C)C3)c1 (stereo not drawn) | -13% | -5% | 26%
O=S(=O)(c1c(F)cccc1F)N1CCN(Cc2c(O)ccc3ccccc23)CC1 | ? | 5% | -6%
C[C@H](CO)N1C[C@H](C)[C@@H](CN(C)Cc2ccc(C(=O)O)cc2)Oc2c(NC(=O)C3CC3)cccc2C1=O | -10% | -1% | 1%
Cc1ccc(CNC(=O)CCCCn2c(=O)[nH]c3ccsc3c2=O)cc1 | 6% | 3% | 2%
Cc1cccc2sc(N(CCCN(C)C)C(=O)CN3C(=O)c4ccccc4C3=O)nc12 | -11% | 7% | 0%
Cc1c(NC(=O)C(C)Sc2nccn2C)c(=O)n(-c2ccccc2)n1C (stereo not drawn) | 2% | 7% | -3%
COc1ccc(NC(=O)N(C)C[C@H]2Oc3ccc(NC(=O)Cc4ccccc4)cc3CC(=O)N([C@H](C)CO)C[C@H]2C)cc1 | -12% | 13% | 7%
CCN(CC)P(=O)(Nc1ccc(SC(F)F)cc1)c1ccc(N(C)C)cc1NC(=O)c1ccco1 (stereo not drawn) | -2% | 1% | -4%
COC(=O)[C@]1(Cc2ccccc2)N[C@H](CN(C)S(=O)(=O)c2ccc(OC(F)(F)F)cc2)[C@@H]2C(=O)N(C)C(=O)[C@@H]21 | -25% | -1% | -20%
COc1ccc(S(=O)(=O)N(C)C[C@H]2Oc3c(NC(=O)Nc4ccc(C(F)(F)F)cc4)cccc3C(=O)N([C@H](C)CO)C[C@@H]2C)cc1 | ? | -2% | 5%
CCOC(=O)CNC(=S)N1CCn2c(nc3ccccc32)C1 | -10% | 6% | 1%
Cc1cc2nc3n(c2cc1C)CC1CC(C(=O)NCCC(C)C)N(C)C31 (stereo not drawn) | 12% | 2% | -9%
COc1cc(/C=C/c2ccc3cccc([N+](=O)[O-])c3n2)ccc1OCC(=O)O | 30% | 1% | -19%
Cc1ccc(S(=O)(=O)N2CCN(C(=O)COC(=O)c3ccccc3Cl)CC2)c(C)c1 | -19% | -7% | -2%
C[C@@H]1CCC(=O)N(C[C@@H](C)CSc2ccc(Br)cc2)CC1 | ? | -9% | -15%
CN(C)C(=O)CCc1ccc2c3c([nH]c2c1)[C@]1(CCC2CCCC2)[C@@H](C(=O)N2CCOCC2)C[C@H](CC(=O)NCCC2=CCCCC2)C(=O)N1CC3 | 31%[activator] | 4% | 15%
Cc1ccc(C(=O)NNC(=O)c2cccc(S(=O)(=O)N3CCOCC3)c2)cc1 | -8% | -1% | 14%
CCOC(=O)[C@H]1[C@H]2COc3cc(OC)ccc3[C@@H]2N2C(=O)CN(CCc3c[nH]c4ccccc34)C(=O)[C@@]12C | -11% | ? | 6%
CCN(CC)S(=O)(=O)c1ccc(N2CC(C(=O)N3Cc4ccccc4CC3C(N)=O)CC2=O)cc1 (stereo not drawn) | 0% | -3% | -7%
O=C(N/C=C/c1ccccc1)c1ccccc1 | 43%[activator] | -5% | 0%
Cc1nc(SCC(=O)Nc2nccs2)c(C#N)c(C)c1C | -25% | 0% | 0%
Cc1cccc(C)c1NC(=O)CNC(=O)C1COc2ccccc2O1 (stereo not drawn) | 0% | 5% | -10%
CCOC(=O)c1cc(-c2ccccc2)nn1Cc1cc(C)no1 | 19% | 4% | -21%
COc1ccc2c(c1)[C@H]1[C@H](CO2)[C@H](c2ccccc2)[C@]2(C)C(=O)Nc3cc(F)ccc3C(=O)N12 | -26% | -4% | -6%

One compound at a time (already shown).
COc1cc(/C=C/c2ccc3cccc([N+](=O)[O-])c3n2)ccc1OCC(=O)O is entered as 2A StopGo = 30%; SARS PLpro yeast = 1%; RE007 growth inh = -19%
C[C@@H]1CCC(=O)N(C[C@@H](C)CSc2ccc(Br)cc2)CC1 is entered as 2A StopGo = ?; SARS PLpro yeast = -9%; RE007 growth inh = -15%

Bioassay records from PubChem BioAssay.

A portion of the library, so the mix of outcomes need not match the whole.
